UUG fidelity: yeast start codon fidelity modulation | S. cerevisiae UUG-firefly luciferase reporter, luminescence/redox ratio | activity score, % at 18.7 µM | 0.13% of 350,000 active;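 active = replicate mean at a twofold rise or more, about +100% in these data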;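 also: firefly luciferase made from a UUG start codon reports start codon fidelity; reporter light over untreated wells divided by growth signal over untreated wells; some hits fall short of that in this replicate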
MT1-MMP act inh: MT1-MMP (human) activation inhibition. P50281. HT1080 RFP-PRO-GFP cells, GFP/RFP ratio fluorescence, overnight; percent of plate control window, DMSO zero. GFP/RFP ratio change, % at 20 µM. 0.061% of 360,000 active;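 active = GFP/RFP ratio change of at least 30% with cell ATP level not reduced by more than half and red fluorescence within 50% of control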; also: strong numbers were not always called active
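Test system: HT1080 RFP-PRO-GFP cells; Benchmarks: DMSO and RFP-L50D-GFP cell wells; Timing: cells overnight before dosing, compound overnight, 37 °C, 5% CO2; Compound: one 20 µM compound dose with 1% DMSO; Read-out: GFP/RFP fluorescence ratio.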
CSC inhib: cancer stem cell inhibition | cancer stem cell-like cells viability, luminescence | inhibition, % at 7.5 µM | 1.1% of 300,000 active;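 active = mean at 75% or more and at least half the replicates too; tested in HMLE shEcad cells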;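 also: 0% = median of negative and 100% = median of positive control wells; the first replicate is given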
PABP FP inh: blocks human PABP binding to poly(A) RNA. 1% of 290,000 active. fluorescence polarization. inhibition, % at 35 µM. P11940;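 active = 50% or more with normal probe brightness, or confirmed in later tests; about a fifth of its hits are not listed in these tables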;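 also: calls also rest on retests at 20 µM and on dose response follow-up; controls were probe without protein and protein plus probe with vehicle; some compounds called inactive have numbers as strong as hits; many hits fall short of the cut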
Target sequence (P11940 whole entry, looked up): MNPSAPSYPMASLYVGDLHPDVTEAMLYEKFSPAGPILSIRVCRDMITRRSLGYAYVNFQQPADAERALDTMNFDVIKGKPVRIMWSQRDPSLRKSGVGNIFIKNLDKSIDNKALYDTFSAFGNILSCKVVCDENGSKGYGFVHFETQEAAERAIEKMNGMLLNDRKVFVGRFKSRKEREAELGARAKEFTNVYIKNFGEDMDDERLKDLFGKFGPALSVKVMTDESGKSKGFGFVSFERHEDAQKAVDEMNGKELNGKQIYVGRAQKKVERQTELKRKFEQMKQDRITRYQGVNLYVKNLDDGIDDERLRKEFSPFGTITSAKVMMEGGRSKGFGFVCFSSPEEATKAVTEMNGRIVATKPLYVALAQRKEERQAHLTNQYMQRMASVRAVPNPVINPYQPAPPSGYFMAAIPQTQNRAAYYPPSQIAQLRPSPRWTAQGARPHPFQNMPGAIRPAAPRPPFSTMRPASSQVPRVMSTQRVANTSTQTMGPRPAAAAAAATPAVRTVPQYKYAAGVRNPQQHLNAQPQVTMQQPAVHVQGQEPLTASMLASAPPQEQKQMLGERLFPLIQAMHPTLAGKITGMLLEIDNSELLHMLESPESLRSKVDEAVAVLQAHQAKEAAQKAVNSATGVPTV
eIF4H inh: inhibitors of RNA binding by human eIF4H; 0.94% of 290,000 active; eIF4H fluorescence polarization binding assay; inhibition, % at 35 µM; AID 2012; Q15056;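 active = 50% or more with normal probe brightness, or confirmed in later tests; about a fifth of its hits are not listed in these tables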;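 also: calls also rest on retests at 20 µM and on dose response follow-up; 0% = protein and probe with vehicle and 100% = probe without protein; strong numbers were not always called active; many hits fall short of the cut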
Rce1 inh: yeast Ras-converting enzyme inhibition; calls only; Q03530; 0.27% of 290,000 active; AID 2563; yeast membranes, quenched prenylated peptide cleavage fluorescence;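 active = fall in fluorescence gain of 50% or more versus controls, with final raw signal at or below 3038400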;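 also: plate controls were neutral control wells for no effect and wells lacking membranes for full effect; tested at 10 µM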
Target sequence (Q03530 whole entry, looked up): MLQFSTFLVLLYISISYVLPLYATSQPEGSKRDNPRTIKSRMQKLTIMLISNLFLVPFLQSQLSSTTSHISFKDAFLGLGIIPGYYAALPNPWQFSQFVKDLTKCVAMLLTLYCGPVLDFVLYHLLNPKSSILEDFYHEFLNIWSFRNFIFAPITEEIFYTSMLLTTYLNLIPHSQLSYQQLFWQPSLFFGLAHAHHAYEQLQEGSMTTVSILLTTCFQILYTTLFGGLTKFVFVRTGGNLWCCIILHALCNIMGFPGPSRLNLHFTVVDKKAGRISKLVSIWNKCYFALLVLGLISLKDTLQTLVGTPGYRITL
Env fusion inh: blocks HIV Env-driven cell-cell fusion. 1.1% of 360,000 active. inhibition, % at 12.3 µM. HeLa-JRFL Env/CEM21 cell fusion, luciferase. AID 651610;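 active = mean replicate inhibition score of at least 50 and every replicate individually at or above 50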;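 also: 0% = plate neutral controls and 100% = maraviroc near 300 nM; one replicate is shown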
eIF4H inh retest: further read-out of eIF4H inh, marked with its call; inhibition, %; compound at 20 µM; confirmation average;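 mean of two retest wells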
PABP FP inh retest: further read-out of PABP FP inh, marked with its call; inhibition, %; compound at 20 µM; confirmation repeats;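 mean of two retest wells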
MT1-MMP act inh RFP: further read-out of MT1-MMP act inh, marked with its call; RFP signal change, %; measured here: RFP expression control read;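 0 = vehicle wells; hits needed this value within 50% of zero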
Numbers without * were called inactive; i = inactive; · = not tested or not shown. Some of the compounds tested (hit frequency here may not be typical).

SMILES	UUG fidelity	MT1-MMP act inh	MT1-MMP act inh RFP	CSC inhib	PABP FP inh	eIF4H inh	Rce1 inh	Env fusion inh	others
O=C1CCN(Cc2ccc(Br)cc2)CCN1[C@H](CO)c1ccccc1	2	7	-1	-4	3	-8	i	18
COc1cccc(N=Nc2ccc(O)c3ncccc23)c1	-16	23	-9	123*	9	23	i	-179
Cc1cccc2nc(CSc3nc4cc([N+](=O)[O-])ccc4s3)cn12	·	-4	-9	13	7	15	i	18
CC1CCN(c2c(NCc3ccc(C(=O)N4c5ccccc5CC4C)cc3)c(=O)c2=O)CC1 (stereo not drawn)	-10	2	-12	0	-1	2	i	39
Cc1ccc(-n2ncc(C(=O)Nc3ccc(Cl)cc3)c2C2CCNCC2)cc1C	12	-10	-10	5	-2	4	i	17
CCN1CCN(c2ccc(S(=O)(=O)N3CCCCC3)cc2NC(=O)c2cccc(NC(C)=O)c2)CC1	·	-1	4	-2	·	·	i	-10
COC(=O)c1sc2nc(CSc3nc4ccc(C)cc4[nH]3)[nH]c(=O)c2c1C	-21	-41	1	7	58	44	i	·	eIF4H inh retest=-11;PABP FP inh retest=2
CCCCN(C(=O)c1ccc(Cl)c(S(=O)(=O)N2CCOCC2)c1)c1c(N)n(CCC)c(=O)[nH]c1=O	-15	-1	0	-7	-3	-10	i	1
O=C(C(=O)N1CCN(Cc2ccc3c(c2)OCO3)CC1)c1c[nH]c2ccccc12	-1	2	-2	-1	4	-13	i	0
O=C(CNc1ccccc1-c1ccccc1)NCc1ccccc1	-17	3	1	15	4	-4	i	-17
COC(=O)N/N=C/c1cn(CCCOc2ccccc2)c2ccccc12	10	6	-13	17	-1	6	i	-9
CC(Sc1cccc[n+]1[O-])C(=O)Nc1cccc(S(=O)(=O)N2CCOCC2)c1 (stereo not drawn)	64	-5	-1	-3	0	-1	i	-322
COc1ccccc1C(C)NCC(=O)NC(=O)NCc1ccco1 (stereo not drawn)	-3	-6	0	8	·	·	i	-27
Cc1ccc(C(C(=O)NC2CCCCC2)N(C(=O)CCCC(=O)Nc2ccccn2)c2ccc3c(c2)OCCO3)cc1 (stereo not drawn)	·	-5	-4	6	-10	0	i	-17
Cn1ncc(Br)c1C(=O)N/N=C/c1ccc(OS(=O)(=O)c2ccccc2)cc1	-10	8	6	-19	-1	-2	i	2
Cc1cccc(NC(=O)CN2CCN(C(=O)c3cccc(-n4cnnn4)c3)CC2)c1C	-15	9	0	·	·	·	·	3
O=C(CN(C(=O)CCC(=O)Nc1nccs1)c1cccc(F)c1)NCCc1ccccc1	-18	-3	2	-18	8	5	i	-9
N#C/C(=C\c1ccccc1OCc1ccc(C(=O)O)cc1)C(=O)Nc1ccc(O)cc1	·	-2	3	2	-17	-3	i	2
CN1CCN(S(=O)(=O)c2ccc(CNC(=O)c3ccccc3)s2)CC1	-16	-1	0	5	-1	-4	i	-4
CC(NC(=O)C1CCC(C)(C(=O)O)C1(C)C)c1ccccc1 (stereo not drawn)	-6	-1	-1	-9	-3	1	i	-26
Cc1ccc2[nH]c3c(NCc4ccccc4)ncnc3c2c1	·	·	·	37	16	0	i	36
CCOc1ccc(C(=O)NCC2(c3ccccc3)CCOCC2)cc1	-8	-2	-2	-3	-3	-19	i	15
CCCc1cc(=O)[nH]c(SCC(=O)c2c[nH]c3ccccc23)n1	-19	-7	0	-10	-4	-5	i	3
Cc1ccc(NCc2nnc(SCC(=O)N3c4ccccc4Sc4ccccc43)o2)c(C)c1	-26	-5	-6	-1	-4	-4	i	14
COC(=O)C1=C(C)N(C(C)c2ccccc2)C(=O)C1 (stereo not drawn)	-4	-3	3	·	0	-2	i	·

Additional structures.
SMILES	UUG fidelity	MT1-MMP act inh	MT1-MMP act inh RFP	CSC inhib	PABP FP inh	eIF4H inh	Rce1 inh	Env fusion inh	others
CCc1cccc(NC(=O)CSc2nnc(Cc3ccc(OC)cc3)c(=O)[nH]2)c1	·	-4	0	-2	·	·	i	-3
CC(C)NS(=O)(=O)c1ccc(NCCCn2ccnc2)c([N+](=O)[O-])c1	-8	-9	-8	-2	0	12	i	9
N#Cc1cnc(SCC(=O)N2CCCCC2)nc1N	-13	-2	1	-9	·	·	i	-10
Cc1cccc(NC(=O)C2CCCCN2S(=O)(=O)c2ccccc2)c1C (stereo not drawn)	11	4	-1	3	·	·	·	·
CC(C)(C)OC(=O)N1CCC(C(=O)Nc2ccc(C(=O)NC3CC3)cc2)CC1	0	4	4	·	·	·	·	-11
O=C(CCSc1ccccc1)OCn1nnc2ccccc2c1=O	·	2	1	1	-6	-2	i	7
CCc1ccc(C(=O)NNC(=O)CN2C(=O)NC(CC)(c3ccccc3)C2=O)cc1 (stereo not drawn)	5	1	1	-3	·	·	i	-9
CCOc1ccc(CCNC(=O)c2ccc(=O)[nH]c2)cc1OCC	-6	·	·	5	9	-4	i	12
COc1cc(NC(=O)c2cccnc2)c(OC)cc1NC(=O)c1ccc(Br)cc1	-4	1	1	0	6	0	i	·
CCOC(=O)c1ccc2[nH]c(C)c(C)c2c1	-10	3	-2	-10	·	·	i	·
Cc1nn2c(-c3cccc(NC(=O)c4ccco4)c3)nnc2c2ccccc12	-11	12	0	-3	1	11	i	-48
CC(C)S(=O)(=O)c1csc(C(=O)NN)c1-n1cccc1	·	-3	4	-7	-1	-14	i	1
NS(=O)(=O)c1cccc(NC(=O)C(Cc2ccccc2)NC(=O)c2ccccc2)c1 (stereo not drawn)	-4	2	1	·	-6	-5	i	-13
CC[N+](C)(C)CC/C=C1/c2ccccc2Sc2ccc(Cl)cc21	-4	4	5	-8	-2	-3	i	5
COc1ccccc1NC(=O)N1CCCC1C(=O)NC12CC3CC(CC(C3)C1)C2 (stereo not drawn)	10	-10	-4	-4	3	1	i	-69
O=C1c2ccccc2C(=O)N1CSc1ncccn1	-9	6	10	-2	-7	-3	i	·
O=C(CN1C(=O)c2ccccc2S1(=O)=O)NCc1ccc2c(c1)OCO2	-20	2	2	-18	7	-3	i	·
c1ccc(-c2nc(NCc3ccco3)c3ccccc3n2)cc1	-15	-1	2	10	-12	-3	i	-152
CCOc1cc(C(=S)N2CCOCC2)ccc1OS(=O)(=O)c1ccc(Br)cc1	-18	1	-8	14	-3	-4	i	6
CCOc1cc(/C=N/NC(=O)C2CC2)ccc1OC(C)C	-2	0	2	4	12	6	i	-7
CCOC(=O)C1=C(N)OC2=C(C(=O)CCC2)C1c1ccc(C)s1 (stereo not drawn)	-9	-5	0	-10	3	-4	i	-37
CNS(=O)(=O)c1ccc(CNC[C@H]2O[C@@H](n3cc(C)c(=O)[nH]c3=O)C[C@@H]2O)cc1	-5	-1	5	·	·	·	·	6
CCN1C(=O)C2(C(C#N)=C(N)Oc3n[nH]c(-c4ccc(Cl)cc4)c32)c2ccccc21 (stereo not drawn)	-4	1	8	-2	-12	-3	i	-107
NS(=O)(=O)c1ccc(NC(=O)CN2CCc3ccccc32)cc1	-1	2	3	-7	-10	-1	i	-23
Cc1c(C(=O)OCC(=O)N2CCN(c3ccccc3)CC2)oc2ccccc12	-11	2	-3	2	·	·	·	28

6 entries from above, arranged by count of non-hydrogen atoms, falling:
SMILES	UUG fidelity	MT1-MMP act inh	MT1-MMP act inh RFP	CSC inhib	PABP FP inh	eIF4H inh	Rce1 inh	Env fusion inh	others
O=C(CN(C(=O)CCC(=O)Nc1nccs1)c1cccc(F)c1)NCCc1ccccc1	-18	-3	2	-18	8	5	i	-9
CC(C)(C)OC(=O)N1CCC(C(=O)Nc2ccc(C(=O)NC3CC3)cc2)CC1	0	4	4	·	·	·	·	-11
CCOc1ccc(CCNC(=O)c2ccc(=O)[nH]c2)cc1OCC	-6	·	·	5	9	-4	i	12
CCCc1cc(=O)[nH]c(SCC(=O)c2c[nH]c3ccccc23)n1	-19	-7	0	-10	-4	-5	i	3
CC(NC(=O)C1CCC(C)(C(=O)O)C1(C)C)c1ccccc1 (stereo not drawn)	-6	-1	-1	-9	-3	1	i	-26
COc1cccc(N=Nc2ccc(O)c3ncccc23)c1	-16	23	-9	123*	9	23	i	-179

Additional records follow.
SMILES	UUG fidelity	MT1-MMP act inh	MT1-MMP act inh RFP	CSC inhib	PABP FP inh	eIF4H inh	Rce1 inh	Env fusion inh	others
Cc1ccc(/C=N/NC(=O)CSCc2ccc(Cl)cc2)cc1	-14	-9	-4	3	2	-7	i	-47
c1ccc(OCCN2CCN(C(c3ccccc3)c3ccccc3)CC2)cc1	2	-2	-5	43	-3	-7	i	13
O=C(CSC1CN(C(c2ccccc2)c2ccccc2)C1)N/N=C/c1ccccc1	·	0	-3	14	-4	0	i	53
CC1CCCN(c2ccc(C(=O)NCc3ccccc3)cn2)C1 (stereo not drawn)	-2	-16	-17	1	3	0	i	-1
COc1ccc(CNC(=O)CNC(C)c2ccc(F)cc2)cc1 (stereo not drawn)	-4	-3	1	-12	21	12	i	18
COc1cccc(OC)c1OCCCCCc1c(C)n[nH]c1C	·	4	-8	·	3	-5	i	·
CC1=Nc2ccccc2/C1=C\c1sc(Nc2ccc(C)cc2)nc1O	·	-3	-8	85*	3	-7	i	-117
O=C(c1cccc(Cl)c1)N1CCN(c2ccc(N3CCOCC3)nn2)CC1	-16	1	1	-9	·	·	i	·
CC(C)(CNC(=O)c1ccc(NS(=O)(=O)c2ccc(Br)cc2)cc1)N1CCOCC1	·	11	-4	20	·	·	i	2
CC(C)CC(N)c1csc(Nc2ccc(S(C)(=O)=O)cc2)n1 (stereo not drawn)	-23	1	2	·	·	·	·	9
O=C(O)C1CCCCN1S(=O)(=O)c1ccc2ccccc2c1 (stereo not drawn)	4	4	3	-2	-5	-3	i	-58
CCN(Cc1ccncc1)C(=O)c1ccc(C)o1	-22	0	8	-7	1	-4	i	7
Cc1ccc2occ(C3N[C@H](C(=O)O)CS3)c(=O)c2c1 (stereo partly drawn)	-22	-4	0	·	8	4	i	·
Cc1ccc([N+](=O)[O-])cc1S(=O)(=O)Nc1ccc(-c2ccc(N3CCOCC3)nn2)cc1	0	3	-3	-4	·	·	i	-7
COc1ccccc1NC(=O)Nc1nc(C(N)CCc2ccccc2)cs1 (stereo not drawn)	-12	-9	-9	·	·	·	·	0
O=C(NCC(c1ccco1)N1CCCCC1)c1cc2c(s1)CCCC2 (stereo not drawn)	-5	-2	0	8	·	·	·	8
CCc1nc(SCC(=O)c2ccc3c(c2)OCCO3)c2ccccc2n1	-20	3	3	7	8	-11	i	-351
CCNS(=O)(=O)c1ccc(OC)c(C)c1	-5	4	5	7	-6	-9	i	23
CC1CCN(c2ccccc2NC(=S)NC(=O)c2cccs2)CC1	·	-18	-15	-17	-5	-3	i	·
Cc1cc(C)cc(NC(=O)N2CCN(Cc3ccc4c(c3)OCO4)CC2)c1	·	2	5	11	6	-17	i	-14
COc1ccc(N2CC(C(=O)N3CCN(c4ccccc4OC)CC3)CC2=O)cc1 (stereo not drawn)	4	1	-3	·	7	6	i	4
CCOC(=O)CN1CC23C=CC(O2)C(C(=O)Nc2cc(OC)ccc2OC)C3C1=O (stereo not drawn)	-2	-1	4	9	11	3	i	-7
CCN1C(=O)C(C(=O)Nc2ccc(OC)cc2)C2CC1(C)Oc1ccccc12 (stereo not drawn)	·	·	·	-6	-6	1	i	·
Cc1ccc(CNC(=O)c2cccc(OCc3c(C)noc3C)c2)cc1	1	8	-4	-10	-4	-8	i	·
O=C(COC(=O)Cc1ccccc1F)NCc1ccc(Cl)cc1	9	-2	1	-16	·	·	·	0
C[C@H](O)[C@@H]1C(=O)N2CCc3ccc(-c4ccccc4)cc3[C@@H]2C[C@@H]1N(C)C(=O)Nc1cc(Cl)cc(Cl)c1	-10	2	-1	·	·	·	·	3
COc1ccc(CNC(=O)c2cccc(C)c2[N+](=O)[O-])cc1	·	1	1	15	-8	-9	i	4
O=S1(=O)N=C(N(CCO)/N=C/c2ccccc2)c2ccccc21	·	-5	-4	·	-6	4	i	-59
O=c1ccn(Cc2ccccc2)c(=O)n1Cc1ccccc1	-6	-1	-6	·	-7	-5	i	·

Assay outcomes deposited in PubChem BioAssay by several laboratories.
